Screening results (PubChem)
Rango dissoc inh: prevents RanGTP from dissociating the Rango-importin beta complex | O95149+P62826 | Biochemical FRET Rango-importin beta, RanGTP-induced dissociation | Potency, µM (series often up to 46.1 µM), without a hit: top-dose activity change, negative = inhibition | 340,000 compounds, 0.071% hits | AID 540253; active means falling FRET ratio curve, often poorly fitted, with flat reads before Ran was added; inconclusive means other falling curves, or compound fluorescence or quenching; inactive means flat or rising ratio curve;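 note: potency is the fitted concentration of half-maximal effect; % of control where 0% means no effect; nearly all actives have a fitted effect of over 45% in size; -100% = wells without RanGTP and RCC1; the record marks most hits as doubtful in a second field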
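Compounds preincubate 5 min with complex of recombinant Rango and importin beta in PBS with 1 mM DTT. Ran (0.6 uM) loaded with 2 mM GTP plus 0.2 uM RCC1 starts dissociation; FRET is recorded 45 min later.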
Rango-impB inh: inhibitors of Rango-importin beta complex formation. Rango CFP/YFP FRET sensor + importin beta, 45 min. Potency, µM (series often up to 92.2 µM), for inactives: at the top dose inhibition of complex formation. 340,000 compounds, 0.031% hits. AID 540263; active = rising FRET ratio curve, often small or poorly fitted; inconclusive = mostly compound fluorescence or quenching in the first reads; inactive = flat curves in all reads;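 note: potency is the fitted concentration of half-maximal effect; 0% = DMSO wells and 100% = buffer wells lacking importin beta; nearly all actives have a fitted effect of over 15% in size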
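Inhibition scored from the CFP 486 nm/YFP 530 nm FRET ratio 45 min after adding 0.125 microM importin beta to 50 nM Rango biosensor preincubated 5 min with compound (room temperature, PBS with DTT, Tween-20, BSA). No-importin wells as positive control.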
miR-21 reporter: raises the signal of a miR-21 reporter. HeLa miR-21 FLuc reporter, luciferase, 48 h. Potency, µM (highest dose often 38.3 µM), inactives show top-dose reporter change, positive = more light. 340,000 tested, under 10 active. AID 2288; active = well fitted rising curve with a large enough effect; inconclusive = small, poorly fitted or top-dose-only effect; inactive = no such curve, though single readings can be large or run the other way;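 note: % of control where 0% means no effect; miR-21 action dims this reporter so a rising signal means less miR-21 action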
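HeLa cells endogenously expressing miR-21, stably carrying CMV-driven firefly luciferase with a downstream miR-21 binding site, 2000 cells/well. Titrations up to approximately 40 uM, 48 hours; luciferase luminescence read.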
GLA inh pH 4.5: inhibitors of human alpha-galactosidase A at pH 4.5. P06280. purified enzyme, 4-MU-alpha-Gal fluorescence, pH 4.5. activity change, negative = inhibition, % at 105 µM. 230,000 tested, under 10 active. AID 1467; inconclusive = small, poorly fitted or top-dose-only inhibition, or a rising curve; inactive = flat fitted curve, though single readings scatter; no compound was filed as active;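 note: 0% = full activity with enzyme and -100% = basal without enzyme; dose as in the result columns while the protocol names 77 µM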
Target sequence (P06280 whole entry, looked up): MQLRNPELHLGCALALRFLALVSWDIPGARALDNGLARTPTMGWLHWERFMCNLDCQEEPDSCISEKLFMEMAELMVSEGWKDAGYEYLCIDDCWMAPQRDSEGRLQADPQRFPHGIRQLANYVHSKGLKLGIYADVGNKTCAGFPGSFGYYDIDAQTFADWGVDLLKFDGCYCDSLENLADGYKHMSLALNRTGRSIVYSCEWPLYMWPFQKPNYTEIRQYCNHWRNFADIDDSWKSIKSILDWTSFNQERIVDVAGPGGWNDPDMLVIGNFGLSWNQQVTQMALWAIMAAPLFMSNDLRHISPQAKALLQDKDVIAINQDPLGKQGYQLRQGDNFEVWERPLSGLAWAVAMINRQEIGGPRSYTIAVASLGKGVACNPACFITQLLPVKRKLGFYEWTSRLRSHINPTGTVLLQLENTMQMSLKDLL
* marks the source's active call; other numbers are inactive results; ? = inconclusive; · = not tested or not shown.

SMILES | Rango dissoc inh | Rango-impB inh | miR-21 reporter | GLA inh pH 4.5
COc1cc(N)ccc1-c1cc2ccccc2oc1=O | ? | 2.2% | -25% | ·
CC(C)NC(=O)N1CCOCCOCCN(C(=O)NC(C)C)CCOCCOCC1 | -2% | -0.6% | -3% | 0
O=C(NCCc1ccco1)C(=O)NCC1OCCCN1S(=O)(=O)c1ccc(Cl)cc1 (configuration not stated) | -2% | -1.8% | 8% | ·
NS(=O)(=O)c1ccc(NC(=O)CSc2nc3ccccc3[nH]2)cc1 | 13% | 1.0% | 3% | -9
COc1ccc(-n2c3c(cc(C(=O)N4CCCCC4)c2=O)C(=O)CC(C)(C)C3)cc1 | -15% | -2.4% | -2% | 1
COC(=O)c1ccccc1NC(=S)NC(=O)C1CCCCC1 | 15% | ? | -5% | -29
O=C(Oc1ccccc1C(=S)N1CCCCC1)c1cc([N+](=O)[O-])cc([N+](=O)[O-])c1 | -9% | -1.1% | -6% | 5
Cc1ccc(C(=O)Nc2c3c(nn2C(C)(C)C)CS(=O)(=O)C3)cc1[N+](=O)[O-] | 4% | -0.1% | 2% | ·
CCOC(=O)/C=C/C(=O)OCC(=O)NCc1ccccc1 | -3% | -2.3% | 3% | -3
O=C1CCC(C(=O)N2CCCC2)CN1CCc1cccc(F)c1 (configuration not stated) | -14% | -1.2% | -2% | ·
O=C(N/N=C/c1cccnc1)c1cc(-c2ccc(Cl)cc2)nc2ccccc12 | -5% | -2.9% | · | ·
Cc1nn(CC(O)CN2c3ccccc3Sc3ccccc32)c(C)c1Br (configuration not stated) | 9% | -1.4% | 25% | 2
CCCCOc1c(Cl)cc(C(=O)N(C)CC(=O)Nc2ccc(N3CCOCC3)cc2)cc1OCC | -6% | -0.5% | 2% | ·
COc1ccc(N(CC(=O)NC(C)(C)C)C(=O)c2ccco2)cc1 | 10% | -0.5% | -1% | -1
O=C(Nc1ccc(F)cc1F)N1CCN(C(=O)c2ccco2)CC1 | 23% | 0.1% | -2% | ·
CCOc1cccc(/C=N/NC(=S)Nc2ccccc2[N+](=O)[O-])c1O | 13% | 1.8% | 7% | -8
CCN(CC(=O)Nc1ccc(NC(C)=O)cc1)C(=O)c1ccc(N2CCCC2)c([N+](=O)[O-])c1 | -4% | 0.1% | · | ·
CN(CC(=O)Nc1ccccc1Br)C(=O)Cn1[nH]c(=O)c2ccccc2c1=O | 30% | 2.5% | · | ·
NC(=O)c1c(NC(=O)C(=O)N2CCOCC2)sc2c1CCC2 | 8% | 2.8% | -20% | ·
O=C(CCCCO)c1ccc(O)c(Cl)c1 | -8% | -4.1% | · | ·
CS(=O)(=O)N1CCN(C(=S)NCc2ccc(F)cc2)CC1 | -7% | 3.1% | -4% | -1
Cc1cc(Cl)c2ccc(Cl)cc2n1 | 1% | 0.9% | -2% | -2
Cn1nc(C(C)(C)C)c([N+](=O)[O-])c1C(=O)Nc1cccc2ccccc12 | 0% | -0.2% | 6% | -15
COc1ccccc1CNS(=O)(=O)c1ccc(S(=O)(=O)NC2CC2)cc1 | 1% | 0.0% | 0% | ·
Cc1cc(C)n(-c2cccc3cccnc23)n1 | 2% | 1.1% | 1% | -12

Complete entries, quoted from the list. Order of screens: Rango dissoc inh, Rango-impB inh, miR-21 reporter, GLA inh pH 4.5
COc1ccccc1CNS(=O)(=O)c1ccc(S(=O)(=O)NC2CC2)cc1 across the screens: 1%, 0.0%, 0%, ·
Cn1nc(C(C)(C)C)c([N+](=O)[O-])c1C(=O)Nc1cccc2ccccc12 across the screens: 0%, -0.2%, 6%, -15
CCN(CC(=O)Nc1ccc(NC(C)=O)cc1)C(=O)c1ccc(N2CCCC2)c([N+](=O)[O-])c1 across the screens: -4%, 0.1%, ·, ·
CCCCOc1c(Cl)cc(C(=O)N(C)CC(=O)Nc2ccc(N3CCOCC3)cc2)cc1OCC across the screens: -6%, -0.5%, 2%, ·
Cc1ccc(C(=O)Nc2c3c(nn2C(C)(C)C)CS(=O)(=O)C3)cc1[N+](=O)[O-] across the screens: 4%, -0.1%, 2%, ·

Next section.
SMILES | Rango dissoc inh | Rango-impB inh | miR-21 reporter | GLA inh pH 4.5
CC(OC(=O)C1CCN(c2ccc(C(F)(F)F)cn2)CC1)C(=O)Nc1cccc([N+](=O)[O-])c1 (configuration not stated) | 0% | 3.3% | · | ·
O=C(Nc1ccc(Cl)cc1)c1ccc2ncsc2c1 | 7% | -0.1% | -57% | ·
O=C(c1ccc(COc2ccc(Cl)cc2)o1)N1CCN(Cc2ccc3c(c2)OCO3)CC1 | 9% | -3.5% | 0% | -8
Oc1cc(-c2cccnc2)cc2cccnc12 | 15% | -3.9% | · | ·
O=C(NC1=NCCS1)c1ccccc1Cl | 0% | -3.7% | -15% | ·
Cc1ccc(OCCOCCn2cnc3ccccc3c2=O)c([N+](=O)[O-])c1 | -30% | -4.1% | -16% | 1
CC1(C)CC2(CCCN3C(=O)CSC32)CCS1 (configuration not stated) | 0% | 4.1% | -4% | -4
O=C(NCC(c1ccco1)N1CCCCC1)c1cnc(Cl)c(Cl)c1 (configuration not stated) | 2% | -5.5% | · | ·
CC(=O)c1c(C)nc(-c2ccc(Cl)cc2)nc1N=CN(C)C | -24% | -2.5% | -37% | 6
Cc1ccccc1NC(=O)CC1SC(=O)N(c2ccccc2)C1=O (configuration not stated) | 11% | ? | -31% | -3
Cc1nn(Cc2c(F)c(F)c(F)c(F)c2F)c(C)c1NC(=O)c1c([N+](=O)[O-])cnn1C | 4% | -2.8% | 2% | -1
Cc1cc(=O)n(-c2ccc(Cl)cc2)c(=O)[nH]1 | -3% | -2.5% | -19% | 6
O=C(CN1C(=O)/C(=C/c2ccc(Cl)cc2)SC1=S)NC1C=CS(=O)(=O)C1 (configuration not stated) | -6% | 5.8% | 0% | ·
COc1ccc(S(=O)(=O)N2CCC(C(=O)NCc3cccnc3)CC2)cc1Cl | 26% | -1.5% | -3% | ·
Cc1cccc(N2C(=O)N(c3ccccc3C)C3CS(=O)(=O)CC32)c1 (configuration not stated) | 0% | 0.1% | 2% | 3
Cc1ccc(-n2ncc3c2CCCC3NC(=O)CCc2c(C)noc2C)cc1C (configuration not stated) | 11% | -0.8% | 2% | ·
O=C(C1=C[C@H](c2ccc(Br)cc2)C[C@H](OCCCCO)O1)N1CCN(Cc2ccc3c(c2)OCO3)CC1 | 11% | 0.2% | 18% | -8
CCC(C)(C)NC(=O)C(c1ccc(OC)cc1)N(C(=O)CCC(=O)Nc1cc(C)on1)c1cc(OC)ccc1OC (configuration not stated) | -6% | -2.9% | -2% | ·
CC(C)(C)C1CCC(C(=O)Nc2ccc(N3CCOCC3)cc2N2CCOCC2)CC1 (configuration not stated) | -1% | 1.3% | · | ·
CCCN1C(=O)N(C)C(N(O)C(=O)NC)C1(C)C (configuration not stated) | -16% | -0.1% | -2% | -1
Cc1cccc(NC(=O)CN2C(=O)N/C(=C\c3ccc(N4CCOCC4)cc3)C2=O)c1 | ? | ? | -49% | -16
CC(C)CNC1CCS(=O)(=O)C1 (configuration not stated) | -15% | -0.3% | 2% | 0
O=C(CCN1C(=O)/C(=C/c2ccccc2)SC1=S)Nc1cccnc1 | -8% | -0.3% | 0% | ·
O=S(=O)(Nc1ccccc1Cl)c1ccc(-c2ccccn2)s1 | -14% | 1.3% | · | ·
OC(CN1CCCC1)Cn1ccc2ccccc21 (configuration not stated) | 0% | -1.1% | -3% | ·

Brought forward from above: four compounds, then new ones.
SMILES | Rango dissoc inh | Rango-impB inh | miR-21 reporter | GLA inh pH 4.5
CC(C)CNC1CCS(=O)(=O)C1 (configuration not stated) | -15% | -0.3% | 2% | 0
O=C(CCN1C(=O)/C(=C/c2ccccc2)SC1=S)Nc1cccnc1 | -8% | -0.3% | 0% | ·
O=S(=O)(Nc1ccccc1Cl)c1ccc(-c2ccccn2)s1 | -14% | 1.3% | · | ·
OC(CN1CCCC1)Cn1ccc2ccccc21 (configuration not stated) | 0% | -1.1% | -3% | ·
CCOC(=O)c1nnn(-c2nonc2N)c1CS(=O)(=O)c1ccccc1 | 9% | -3.3% | -1% | 0
COc1ccc2nc(NC(=O)CSc3nnnn3C)sc2c1 | -15% | 0.4% | -33% | -11
CCc1cccc(NC(=S)Nc2cccc3ccccc23)c1 | -15% | -0.7% | -16% | ·
COc1ccccc1N(C)S(=O)(=O)c1ccc(Cl)c(C(=O)NCC2(N(C)C)CCCCC2)c1 | -8% | -2.0% | · | ·
Cc1ccccc1Cc1c(C)nc2nc(SCC(=O)NCCCN3CCCCC3)nn2c1C | 6% | ? | -5% | ·
CC(=O)N1CCOc2ccc(S(=O)(=O)Nc3ccc(Cl)cn3)cc21 | 21% | 1.2% | 2% | ·
OCc1nnn(-c2cccc(C(F)(F)F)c2)c1CO | 14% | -0.1% | 1% | 8
O=C(c1ccc(NS(=O)(=O)c2ccc(Cl)c(Cl)c2)cc1)N1CCOCC1 | -3% | -2.0% | · | ·
CN(C(=O)COC(=O)COc1ccc(Cl)cc1Cl)c1c(N)n(Cc2ccccc2)c(=O)[nH]c1=O | 8% | -1.1% | · | ·
O=C(CSc1nc2ccc(Nc3nc(N4CCCC4)nc(N4CCCC4)n3)cc2s1)NCc1ccco1 | -2% | -2.3% | 2% | -2
CCn1cc(Br)c(C(=O)Nc2ccc(F)cc2F)n1 | -10% | -1.0% | -39% | -3
O=C(NNC(=S)Nc1ccc(Br)cc1)c1ccccc1Br | 6% | 0.6% | -28% | ·
CN(CCOc1ccccc1)C(=O)C1CCC(=O)N(CCc2ccc(Cl)cc2)C1 (configuration not stated) | 5% | 0.3% | -37% | ·
Cc1ccc(C2CC(=O)C=C(Nc3ccc(Cl)cc3)C2)cc1 (configuration not stated) | 13% | 1.0% | -6% | 0
Cc1ccnc(NS(=O)(=O)c2ccc(NC(=O)CCc3ccccc3)cc2)n1 | -7% | -2.2% | -7% | ·
Clc1ccc(-[n+]2c(-c3cccc(Br)c3)[nH]c3nc4ccccc4nc32)cc1 | 1% | 1.1% | -1% | 0
COc1ccc(CS(=O)(=O)CC(C)(O)c2ccccc2Cl)cc1 (configuration not stated) | 5% | 0.2% | -1% | ·
Cc1nnc(-n2ncc(C#N)c2N)c2nn(-c3cccc(Cl)c3)c(C)c12 | -7% | 0.5% | -6% | -14
COc1ccc(N(CC(=O)N2CCOCC2)S(C)(=O)=O)cc1Cl | 12% | -1.4% | -2% | ·
O=C(CSc1nc2ccccc2o1)c1ccccc1 | 0% | 0.9% | -32% | 5
O=C1c2ccccc2[C@@H]2C[C@@H](O)[C@H](Nc3ccccc3)CCN12 | 0% | 1.6% | · | ·
CCOc1cc(N2CCOCC2)c(OCC)cc1NC(=O)c1cc(S(=O)(=O)N2CCOCC2)ccc1F | -7% | 4.6% | · | ·
COCC(C)N1CC(O)=C(c2nc(-c3ccc(Cl)cc3)cs2)C1=N (configuration not stated) | -16% | -6.1% | -27% | 3
CC(=O)Nc1ccc2sc(NC(=O)CN3CCOCC3)nc2c1 | 2% | 5.1% | -6% | ·
CC(=O)N1CCN(c2nnc(-c3ccc(C)cc3)c3ccccc23)CC1 | -12% | ? | -4% | ·

Remaining list, next part.
SMILES | Rango dissoc inh | Rango-impB inh | miR-21 reporter | GLA inh pH 4.5
O=S(=O)(Nc1nc2ccc(Cl)cc2s1)c1cccs1 | 21% | -0.8% | -23% | ·
CCCSc1ccc([C@H]2N[C@@](C)(C(=O)OC)[C@H]3C(=O)N(C)C(=O)[C@@H]23)cc1OC | -6% | 3.4% | · | ·
Cc1cccc(Nc2nc(N)c(C#N)c(CC#N)c2C#N)c1 | ? | ? | -35% | 4
Cc1sc(NC(=O)CSc2nnc(CCNC(=O)c3cccs3)n2C)nc1-c1ccccc1 | -1% | 4.7% | -5% | 0
CCOC(=O)C1(CCOC)CCN(Cc2ccccc2-c2ccco2)CC1 | -15% | -2.9% | 4% | 0
Cn1c(=O)n(C)c2cc([N+](=O)[O-])c(N3CCN(S(=O)(=O)c4ccc5ccccc5c4)CC3)cc21 | 10% | 0.8% | -1% | -6
CCc1cc(Cn2nc(-c3ccccc3)cc2C(=O)O)on1 | -12% | 0.7% | · | ·
Cc1ccc2c(c1)C(c1ccccc1)N(C(=O)c1cc3ccccc3oc1=O)CC(=O)N2 (configuration not stated) | 12% | -2.9% | -9% | -3

These rows are one share of the data. The share of hits here may be higher or lower than overall.
